Compound activity as filed in PubChem.
Mtb growth: Mycobacterium tuberculosis H37Rv growth inhibition, cell based, confirmatory dose response (AID 1949). most inactive calls were filed without a number and no value below 0 was filed. hit rate 1.6% among 100,000. inhibition, % at 10 µg/mL; hits with a dose series show IC50 in µg/mL;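 active means confirmed in a dose series; inconclusive means about 50% or more but not retested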;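 further: bacteria grown 7 days with compound before Alamar blue readout; 0% = untreated bacteria and 100% = reference antibiotic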
The depositor's hits bear a star; i = inactive; ? = inconclusive. Not all compounds are listed (hit frequency here may not be typical).

SMILES	Mtb growth
O=C(Cc1c(F)cccc1Cl)NCc1ccc2c(c1)OCO2	i
COc1ccc(N/C(=N\c2nc(C)cc(C)n2)NC(=O)c2ccccc2)cc1	i
COc1ccc(S(=O)(=O)N(CC(=O)NC2CC3CCC2C3)c2cc(Cl)ccc2OC)cc1OC (stereo not given)	3.9%
O=C(NC(=S)NC1CCCCC1)c1ccco1	i
COc1cc(OC)cc(OCC(O)Cn2ccnc2)c1 (stereo not given)	i
O=[N+]([O-])c1c(-c2ccccc2)c2cc(Cl)ccc2n2cnnc12	i
CC(C)c1nc2ccccc2n1CCC1CCCCC1	i
COC(=O)c1ccc(NC(=O)CN(C)S(=O)(=O)c2cc(Cl)ccc2Cl)cc1	2.0%
Cc1ccnc(Nc2nc(-c3ccc(O)cc3O)cs2)c1	i
COc1cc(C(=O)Nc2ccc(CN3CCCC3)cc2)cc(OC)c1OC	i
CCOc1ccc(N2CCN(CCNC(=O)Nc3cccc(Cl)c3)CC2)cc1	24.4%
CCc1ccc(NC(=O)Cn2cnc3scc(-c4ccc(C)c(C)c4)c3c2=O)cc1	8.0%
O=C(CC12CC3CC(CC(C3)C1)C2)NC1CCCCC1	6.5%
CCc1ccc(-c2csc(NCc3ccco3)n2)cc1	25.9%
CCCCNC(=O)CC(=O)NCCCC	i
CCC(CC)NS(=O)(=O)c1cc(Cl)ccc1Cl	i
Cc1ccc(C(C)C)c(OCCNC(=O)c2c(-c3ccccc3Cl)noc2C)c1	4.6%
O=C(c1cccc(F)c1)N1CCN(c2cnn(-c3ccccc3)c(=O)c2Br)CC1	i
CCOc1ccc(NC(=O)COc2ccc(CC)cc2Br)cc1	i
CCOC(=O)c1ccc(NC(=O)N2CCc3ccccc32)cc1	2.2%
Cc1ccc(OC(=O)C(c2ccccc2)c2ccccc2)c(Br)c1	0.3%
Cn1c(=O)c2c([nH]c(=S)n2Cc2ccccc2)n(C)c1=O	i
O=C(CCC1CCCC1)N1CCc2cc(Br)ccc21	4.3%
Cc1cc(OCCOCCN(C)CCO)cc(C)c1Cl	i
Cc1ccc(C(=O)N2CCOCC2)cc1Br	i

Following part.
SMILES	Mtb growth
O=C(COc1ccc([N+](=O)[O-])cc1)c1ccc(F)cc1	4.1%
COc1ccc(OC)c2c(C)cc(N3CCNCC3)nc12	i
COC(=O)c1ccccc1NC(=O)Cn1c(=O)oc2ccc(Cl)cc21	i
CN1CCN(NC(=O)Nc2ccc3c(c2)OCO3)CC1	i
COc1ccc(S(=O)(=O)N2CCC(C(=O)N3CCCCCC3)CC2)cc1OC	i
O=S(=O)(c1ccc(Cl)cc1)N1CCN(Cc2ccccc2F)CC1	3.3%
Cc1cc(Cl)ccc1OCC(=O)Nc1ccc(S(=O)(=O)N2CCCC2)cc1	i
Cc1cc(C)c2c(CC(=O)Nc3ccc4c(c3)OCO4)coc2c1	i
O=C1CC(NCc2cccc(F)c2)C(=O)N1c1ccccc1 (stereo not given)	i
O=C(Nc1ccc(-c2n[nH]c(=S)n2-c2ccccc2)cc1)c1cccs1	i
COc1cc(NC(=O)c2cc(OC)c(OC)c(OC)c2)c(OC)cc1Cl	7.1%
COc1ccc(C(=O)Nn2c(SCc3c(F)cccc3Cl)nc3ccccc3c2=O)cc1	2.4%
CCOc1ccc(NS(=O)(=O)c2ccc(NC(=S)NC(=O)c3cccc([N+](=O)[O-])c3)cc2)cc1	i
NS(=O)(=O)c1ccc(NC(=S)NCCc2ccc(Cl)cc2)cc1	i
CC(=O)c1cccc(NC(=O)CSc2ccc(C)cc2)c1	36.1%
O=C(CCCN1CCOC(c2ccccc2)C1)c1ccc(F)cc1 (stereo not given)	3.5%
Cc1ccc(Cn2ncc3c(N4CCN(CCc5ccccc5)CC4)ncnc32)cc1	i
O=C(Oc1ccc(/C=N/O)cc1)c1ccc(Br)cc1	?
CCCCc1nnc(NC(=O)CCCc2ccccc2)s1	i
Cc1cc(NC(=O)c2ccc(Cl)c(S(=O)(=O)N3CCCC3)c2)no1	i
CC(C)CNC(=O)c1ccc(COc2ccc3c(c2)CCC3)cc1	i
O=C(Nc1ccc2sc(-c3ccccc3)nc2c1)c1ccccc1Cl	i
O=C(NCCc1ccccc1)c1ccccc1NS(=O)(=O)c1ccc2c(c1)OCCO2	i
Cc1cccc(OCC(=O)Nc2ccc(S(=O)(=O)N3CCCCCC3)cc2)c1	i
COc1cccc(/C=C(\C#N)c2nc(-c3cccs3)cs2)c1	i

Part of the list above, reformatted.
| mol | Mtb growth |
| --- | --- |
| O=C(CCC1CCCC1)N1CCc2cc(Br)ccc21 | 4.3% |
| Cc1cc(OCCOCCN(C)CCO)cc(C)c1Cl | i |
| Cc1ccc(C(=O)N2CCOCC2)cc1Br | i |
| O=C(COc1ccc([N+](=O)[O-])cc1)c1ccc(F)cc1 | 4.1% |
| COc1ccc(OC)c2c(C)cc(N3CCNCC3)nc12 | i |
| COC(=O)c1ccccc1NC(=O)Cn1c(=O)oc2ccc(Cl)cc21 | i |
| CN1CCN(NC(=O)Nc2ccc3c(c2)OCO3)CC1 | i |
| COc1ccc(S(=O)(=O)N2CCC(C(=O)N3CCCCCC3)CC2)cc1OC | i |
| O=S(=O)(c1ccc(Cl)cc1)N1CCN(Cc2ccccc2F)CC1 | 3.3% |
| Cc1cc(Cl)ccc1OCC(=O)Nc1ccc(S(=O)(=O)N2CCCC2)cc1 | i |
| Cc1cc(C)c2c(CC(=O)Nc3ccc4c(c3)OCO4)coc2c1 | i |
| O=C1CC(NCc2cccc(F)c2)C(=O)N1c1ccccc1 (stereo not given) | i |
| O=C(Nc1ccc(-c2n[nH]c(=S)n2-c2ccccc2)cc1)c1cccs1 | i |
| COc1cc(NC(=O)c2cc(OC)c(OC)c(OC)c2)c(OC)cc1Cl | 7.1% |
| COc1ccc(C(=O)Nn2c(SCc3c(F)cccc3Cl)nc3ccccc3c2=O)cc1 | 2.4% |
| CCOc1ccc(NS(=O)(=O)c2ccc(NC(=S)NC(=O)c3cccc([N+](=O)[O-])c3)cc2)cc1 | i |
| NS(=O)(=O)c1ccc(NC(=S)NCCc2ccc(Cl)cc2)cc1 | i |
| CC(=O)c1cccc(NC(=O)CSc2ccc(C)cc2)c1 | 36.1% |
| O=C(CCCN1CCOC(c2ccccc2)C1)c1ccc(F)cc1 (stereo not given) | 3.5% |
| Cc1ccc(Cn2ncc3c(N4CCN(CCc5ccccc5)CC4)ncnc32)cc1 | i |
| O=C(Oc1ccc(/C=N/O)cc1)c1ccc(Br)cc1 | ? |
| CCCCc1nnc(NC(=O)CCCc2ccccc2)s1 | i |
| Cc1cc(NC(=O)c2ccc(Cl)c(S(=O)(=O)N3CCCC3)c2)no1 | i |
| CC(C)CNC(=O)c1ccc(COc2ccc3c(c2)CCC3)cc1 | i |
| O=C(Nc1ccc2sc(-c3ccccc3)nc2c1)c1ccccc1Cl | i |

Later entries.
SMILES	Mtb growth
Cn1nnc2cc(C(=O)N3CCN(c4ccccc4)CC3)ccc21	i
Cc1cc(C)c(S(=O)(=O)N2CCN(C)CC2)cc1Br	i
COC(=O)COc1ccc(S(=O)(=O)N2CCc3ccccc3C2)cc1C	i
NS(=O)(=O)c1cccc(S(=O)(=O)c2ccc(Br)cc2)c1	1.1%
CCOc1ccc(C(=O)Nc2cc(OC)ccc2OC)cc1	1.4%
CCOC(=O)c1c[nH]c2cc(C)cc(C)c2c1=O	i
Cc1cccc(N2C(=O)CC(N3CCN(c4ccccc4O)CC3)C2=O)c1 (stereo not given)	i
Cc1cc(C)nc(NC(=O)C2CC=CCC2C(=O)O)c1 (stereo not given)	i
COC(=O)c1sc(Nc2ccccc2)nc1C	0.1%
Cc1ccc(NC(=O)CSc2nnc(COc3ccc4c(c3)CCCC4)o2)cc1[N+](=O)[O-]	i
Cc1oc2c(C)c(O)ccc2c(=O)c1-c1nncn1-c1ccccc1	i
CCOc1ccccc1N(CC(=O)NC1CCCCCC1)S(=O)(=O)c1ccc(C)cc1	i
O=C(CCS(=O)(=O)Cc1ccccc1)Nc1ccc(F)cc1F	i
COC(=O)C(Oc1ccc2c(C)cc(=O)oc2c1)c1ccccc1 (stereo not given)	i
CC(C)COc1cccc(C(=O)Nc2ccccc2[N+](=O)[O-])c1	6.2%
COc1cc(SC)ccc1C(=O)Nc1ccncc1	i
Cc1ccccc1OCC(=O)Nc1ccc([N+](=O)[O-])cc1	i
Cc1cccc(N2C(=O)CSC2=S)c1C	i
O=C(Nc1ccccc1N1CCCC1)c1cccc(Cl)c1Cl	?
O=C(NCCCc1ccccc1)c1sc2ccccc2c1Cl	i
CNC(=O)c1c(C)c2cc(OC)ccc2n1CCN(C)C	i
Cc1ccc(C)c(OCC(=O)Nc2cc(NC(=O)COc3cc(C)ccc3C)cc(C(=O)O)c2)c1	9.2%
Cc1ccc(CNC(=O)c2ccc(C#CC(C)(C)O)s2)cc1	1.3%
O=S(=O)(NCc1ccc2c(c1)OCO2)c1ccc2c(c1)OCCO2	6.5%
Cc1ccc(CNC(=O)CSc2nnnn2C)cc1	0.2%

Grouped by structure: the compounds so far with a COOH group (2)
SMILES	Mtb growth
Cc1cc(C)nc(NC(=O)C2CC=CCC2C(=O)O)c1 (stereo not given)	i
Cc1ccc(C)c(OCC(=O)Nc2cc(NC(=O)COc3cc(C)ccc3C)cc(C(=O)O)c2)c1	9.2%

(cont.)
SMILES	Mtb growth
CCc1c(C)sc(NC(=O)c2cc(-c3ccc(C)o3)nc3ccccc23)c1C(N)=O	i
CCOc1ccc(Br)cc1C(=O)NCc1ccco1	i
COC(=O)c1ccc(CSc2ccc(C)cc2)cc1	i
Cc1ccc2nc(-c3ccc(NS(=O)(=O)c4ccc([N+](=O)[O-])cc4)cc3)sc2c1	i
Brc1ccc(CNCCc2c[nH]c3ccccc23)cc1	35.2%
CC1(C)CC(=O)c2cnc(NC(=O)c3ccc(-c4ccccc4)cc3)nc2C1	i
O=Cc1ccc(Sc2ccccc2)o1	?
O=Cc1c(-c2ccccc2)c(C=O)n2ccccc12	37.6%
O=C(c1ccccc1Sc1ccccc1[N+](=O)[O-])N1CCCCCC1	i
